E coli growth – inhibitors of Escherichia coli growth; OD600, 23 h; active compounds read low; OD600 absorbance (test concentration not listed); 0.21% of 330,000 active; AID 1053175;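 active = OD600 absorbance below the run mean of sample wells minus 3.6 SD, in any replicate, cut at about 0.56 in these data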;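 also: stock transfer was 300 nL into about 60 µL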
Vif A3G – inhibitors of Vif binding to APOBEC3G peptide, primary screen, biochemical, TR-FRET, GST-Vif 1-94, biotin-A3G peptide, dose response retest (AID 1117319); 0.57% of 260,000 active; one-dose inhibition, %; IC50 in µM for titrated hits; TR-FRET GST-Vif / biotin-A3G peptide binding; higher % means a stronger effect; test concentration not given here; strong numbers were not always called active;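 active = above the screen mean plus three standard deviations and confirmed in dose response; inconclusive = results disagree or hit not tested in dose response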;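 also: Vif residues 1-94 fused to GST binding biotinylated APOBEC3G peptide 110-148; 0% = full assay without inhibitor and 100% = GST in place of GST-Vif; retest series ran down from 100 µM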
ALR H2O2 inh – human ALR oxidase inhibition via reduced H2O2 | P55789 | AID 485317 | 3.8% of 290,000 active | inhibition, % (concentration not given with the values) | purified ALR, DTT oxidation, H2O2 HRP-luminol luminescence;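 active = mean and each replicate at 75% or more; inconclusive = only one of the two met; inactive = neither met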;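 also: stock transfer was 7.5 nL into about 7.5 µL; 0% = neutral wells and 100% = wells with inactivated enzyme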
Target sequence (P55789 whole entry, looked up): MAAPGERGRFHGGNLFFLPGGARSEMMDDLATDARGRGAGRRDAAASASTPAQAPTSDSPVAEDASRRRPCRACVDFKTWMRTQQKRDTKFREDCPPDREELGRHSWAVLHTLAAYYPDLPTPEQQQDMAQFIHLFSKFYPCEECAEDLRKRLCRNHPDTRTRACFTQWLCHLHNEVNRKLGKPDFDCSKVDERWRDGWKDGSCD
MLL AF4-AF9 inh – MLL-AF4/AF9 protein interaction inhibition; P42568; 0.47% of 350,000 active; AlphaScreen, biotin-AF4 peptide binding to FLAG-AF9; inhibition, % at 10 µM;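 active = every replicate reaching a set inhibition limit, whatever the replicate mean, cut at about 25% in these data; inconclusive = mean inhibition reaches that limit but some replicates miss it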;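 also: 0% = plate neutral control median and 100% = total signal loss; the record names both 10 and 1 µM as test concentration; the first replicate is given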
FGF22 binding – shifts melting point of recombinant human FGF22. Q9HCT0. recombinant FGF22 thermal shift, SYPRO orange fluorescence; percent of sucrose octasulfate shift, DMSO zero. 1.5% of 340,000 active. calls only at 9.99 µM;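 active = melting point raised past a set limit in the mean and every replicate; inconclusive = no clear call; three in four hits are not shown here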
Target sequence (Q9HCT0 whole entry, looked up): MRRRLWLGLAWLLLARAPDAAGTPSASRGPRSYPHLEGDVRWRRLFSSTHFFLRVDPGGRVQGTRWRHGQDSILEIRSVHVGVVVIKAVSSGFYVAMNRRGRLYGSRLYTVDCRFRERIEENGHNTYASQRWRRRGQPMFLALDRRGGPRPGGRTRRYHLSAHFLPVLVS
HNF4A DNA FP – change in binding of human HNF4 alpha to DNA; P41235; HNF4a-FITC DNA binding, fluorescence polarization, 1 h; activity change, % at 10 µM; 0.3% of 360,000 active; in the data active = activity change above about 30%, passing the limit was not always enough;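 also: controls were the assay level and a saturating level of protein; the project sought stronger binding though the title names inhibitors; some compounds called inactive have numbers as strong as hits; positive values seem to mean higher polarization but the record does not say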
Target sequence (P41235 whole entry, looked up): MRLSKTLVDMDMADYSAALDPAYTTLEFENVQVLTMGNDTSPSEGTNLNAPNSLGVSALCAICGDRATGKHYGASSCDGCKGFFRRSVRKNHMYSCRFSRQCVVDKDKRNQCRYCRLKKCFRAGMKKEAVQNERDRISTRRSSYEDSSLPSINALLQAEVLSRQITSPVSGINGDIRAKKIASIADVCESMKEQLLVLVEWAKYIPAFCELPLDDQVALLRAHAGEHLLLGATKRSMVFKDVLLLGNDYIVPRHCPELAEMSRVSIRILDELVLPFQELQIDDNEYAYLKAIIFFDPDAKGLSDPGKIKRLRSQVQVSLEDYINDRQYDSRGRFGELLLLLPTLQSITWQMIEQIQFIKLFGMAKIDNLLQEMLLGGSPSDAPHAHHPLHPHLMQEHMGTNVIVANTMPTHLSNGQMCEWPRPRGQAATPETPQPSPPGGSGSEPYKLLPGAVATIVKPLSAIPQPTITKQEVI
Ecoli rRNA inh – inhibits bacterial ribosomal RNA function over humanized ribosomes; AID 720706; GFP signal change (wild-type ribosome), % (test concentration not listed); 1.6% of 350,000 active; E. coli WT GFP vs humanized-ribosome RFP mutants, fluorescence, 24 h; active compounds read low; DMSO median 0, no signal -100;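 active = significant combined selectivity score with lowered wild-type GFP, culture density cut under 30%, mutant RFP and density less affected; inactive = any of these conditions unmet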; also: one replicate is shown; some compounds called inactive have numbers as strong as hits
Ecoli rRNA inh OD600 – second read-out of Ecoli rRNA inh, no call of its own (marks repeat the call); OD600 change, %; measured here: OD600 growth;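 optical density of the mix in the first replicate; 0 = DMSO median and -100 = no signal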
Ecoli rRNA inh RFP – second read-out of Ecoli rRNA inh, no call of its own (marks repeat the call); RFP signal change, %; measured here: RFP humanized mutant strains;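 first replicate; 0 = DMSO median and -100 = no signal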
Starred values were filed as active, the others as inactive; i = inactive; ? = inconclusive; nt = not tested or not shown. Not all compounds are listed; count on the stated rates, not on these rows.

SMILES	E coli growth	Vif A3G	ALR H2O2 inh	MLL AF4-AF9 inh	FGF22 binding	HNF4A DNA FP	Ecoli rRNA inh	Ecoli rRNA inh OD600	Ecoli rRNA inh RFP
COCCNc1ccc([N+](=O)[O-])cc1C(=O)NC1CCCc2ccccc21 (configuration not stated)	0.68	nt	1	7.4	i	-0.2	-12	-10	-3.8
O=C(CCCn1c(=O)c2sccc2n(Cc2cc(=O)n3ccccc3n2)c1=O)NCc1ccco1	0.77	0%	-74	-0.2	i	5.6	5	-2	-10
C[C@H](CO)N1C[C@H](C)[C@H](CN(C)Cc2cccc(C(F)(F)F)c2)Oc2ncc(/C=C/c3ccccc3)cc2C1=O	nt	nt	nt	9.0	i	nt	2	1	-2.2
CC(=O)Nc1cc(C(F)(F)F)ccc1N1CCOCC1	0.74	0%	1	-7.7	i	-0.4	16	13	1.2
CN(C)CCCn1c(N)c(C#N)c2nc3ccccc3nc21	0.67	nt	-9	2.2	i	91	6	1	16
COc1ccccc1-c1nnc(SCC(=O)Nc2ccc(N3CCOCC3)cc2)n1C	0.7	5%	?	0.0	i	1.3	-2	1	-0.8
COC(=O)c1cccc(COC(=O)c2cc3ccccc3oc2=O)c1	0.67	-6%	-2	-1.1	i	1.8	6	5	0.7
COc1ccccc1NC(=O)c1oc2ccccc2c1NC(=O)c1cc(OC)c(OC)c(OC)c1	0.67	-51%	-6	-27	i	-2.4	7	5	4.7
Cc1ccc(OCc2nnc(SCC(=O)c3cccs3)n2-c2ccccc2)cc1C	0.73	16%	-1	nt	nt	-1.7	nt	nt	nt
C[C@@H]1CN([C@@H](C)CO)S(=O)(=O)c2ccc(Br)cc2O[C@H]1CN(C)CC1CCCC1	nt	nt	nt	-1.3	i	nt	-12	-32	3.7
C=CCC(=O)OCC(=O)Nc1ccc(Cl)cn1	0.64	-1%	10	nt	nt	1.0	nt	nt	nt
CC(C)Sc1nc2c(c(=O)[nH]c(=O)n2C)n1C	0.68	1%	1	nt	nt	-0.3	nt	nt	nt

The last two entries of the section above open the next one:
SMILES	E coli growth	Vif A3G	ALR H2O2 inh	MLL AF4-AF9 inh	FGF22 binding	HNF4A DNA FP	Ecoli rRNA inh	Ecoli rRNA inh OD600	Ecoli rRNA inh RFP
C=CCC(=O)OCC(=O)Nc1ccc(Cl)cn1	0.64	-1%	10	nt	nt	1.0	nt	nt	nt
CC(C)Sc1nc2c(c(=O)[nH]c(=O)n2C)n1C	0.68	1%	1	nt	nt	-0.3	nt	nt	nt
C[C@@H]1CN([C@@H](C)CO)C(=O)c2cccc(N(C)C)c2O[C@H]1CN(C)C(=O)Nc1ccccc1	nt	nt	nt	-1.8	i	nt	1	4	-2.8
O=C(Cc1ccc(NC(=O)C2CCCN(C(=O)C3CCC3)C2)cc1)Nc1cccc(C(=O)N2CCCCC2)c1 (configuration not stated)	0.69	-2%	nt	-1.9	i	3.4	5	0	-2.7
Cc1ccc(OC(=O)c2ccc(Cl)c([N+](=O)[O-])c2)cn1	0.7	3%	11	-5.9	i	1.8	1	-1	-3.3
Cc1cc(=O)n2nc(N3CCCC(C(=O)NC4CCCCC4C)C3)sc2n1 (configuration not stated)	0.69	nt	-4	-2.4	i	0.7	2	13	0.3
C[C@@H]1CN([C@@H](C)CO)C(=O)c2cccc(NC(=O)C3CCCCC3)c2O[C@H]1CN(C)Cc1ccc2c(c1)OCO2	nt	nt	nt	5.8	i	nt	-3	-6	3.5
COc1ccc(CCN2CCCC(CN(C)C(=O)c3ccoc3)C2)cc1 (configuration not stated)	0.64	nt	-9	-10	i	1.6	18	14	4.5
CCN(CC)S(=O)(=O)c1ccc(N2CCOCC2)c(NC(=O)c2ccccc2F)c1	0.64	1%	-8	1.1	i	-0.2	-12	-19	-2.2
CC1CCCC(C)N1C(=O)c1cccc2c1-c1ccccc1/C2=N/O (configuration not stated)	nt	14%	-3	nt	nt	1.1	nt	nt	nt
CCCCC(O)CN1CCC(c2ccccc2)CC1 (configuration not stated)	0.64	-1%	-4	nt	nt	2.5	nt	nt	nt
N#Cc1c(-c2ccc(Cl)cc2)c2c([nH]c1=S)CCCC2	0.72	-10%	10	-1.8	i	1.7	8	-4	-0.5
CCCC(=O)O[C@H]1C[C@@H](C)N(C(=O)c2ccccc2)c2ccc(C)cc21	0.68	-7%	-7	nt	nt	1.1	nt	nt	nt
Cc1ccc2nc(SC(C)C(=O)Nc3cccc([N+](=O)[O-])c3)[nH]c2c1 (configuration not stated)	0.67	-5%	-5	nt	nt	-1.5	nt	nt	nt

Three compounds out of the list, ordered by SMILES length, lowest first:
SMILES	E coli growth	Vif A3G	ALR H2O2 inh	MLL AF4-AF9 inh	FGF22 binding	HNF4A DNA FP	Ecoli rRNA inh	Ecoli rRNA inh OD600	Ecoli rRNA inh RFP
CCCCC(O)CN1CCC(c2ccccc2)CC1 (configuration not stated)	0.64	-1%	-4	nt	nt	2.5	nt	nt	nt
Cc1ccc(OC(=O)c2ccc(Cl)c([N+](=O)[O-])c2)cn1	0.7	3%	11	-5.9	i	1.8	1	-1	-3.3
C[C@@H]1CN([C@@H](C)CO)C(=O)c2cccc(N(C)C)c2O[C@H]1CN(C)C(=O)Nc1ccccc1	nt	nt	nt	-1.8	i	nt	1	4	-2.8

Following part:
SMILES	E coli growth	Vif A3G	ALR H2O2 inh	MLL AF4-AF9 inh	FGF22 binding	HNF4A DNA FP	Ecoli rRNA inh	Ecoli rRNA inh OD600	Ecoli rRNA inh RFP
Cc1ccc2c(c1)c1nc3ccccc3nc1n2CCN1CCOCC1	0.73	13%	23	nt	nt	-0.1	nt	nt	nt
O=C(Nc1nccs1)c1ccc(COc2ccc(Cl)cc2)o1	0.7	-5%	-3	nt	nt	-2.2	nt	nt	nt
O=C(CSc1nnc(-c2ccncc2)o1)Nc1cccc(F)c1	0.7	-1%	-47	2.6	i	0.7	1	2	0.1
CC(NC(=O)c1ccccc1)C(=O)NC1CCCc2ccccc21 (configuration not stated)	0.69	-5%	nt	0.4	i	2.1	6	4	0.4
C/C(=N\Nc1ccc(C(=O)O)cc1)c1ccc2c(c1)Nc1ccccc1S2	nt	?	100*	8.8	i	0.2	-45*	-33*	-7.5*
O=C(NNC(=O)c1cccc(-n2cccc2)c1)c1ccc(F)cc1	0.7	16%	-1	-35	i	-14	8	7	6.9
Cc1ccc(C(=O)N/N=C\c2ccc(-c3ccc([N+](=O)[O-])cc3)o2)cn1	nt	12%	-2	-1.0	i	-1.3	8	4	2.9
O=C(Nc1ccc2c(c1)CCC2)c1cccc(S(=O)(=O)Nc2ccccc2Cl)c1	0.68	15%	-7	nt	nt	1.8	nt	nt	nt
Cc1ccc(NS(=O)(=O)c2ccc(C)c(NC(=S)NCCN3CCOCC3)c2)c(C)c1	0.7	nt	nt	4.7	i	1.0	-3	-10	0.9
C=CCNCCOc1cccc(Br)c1	0.67	-5%	-3	9.7	i	-0.6	6	2	-9.9
CCCNC(=O)C1CC(c2ccccc2C(F)(F)F)=NO1 (configuration not stated)	0.68	nt	1	2.7	i	1.2	7	9	10
CC(=O)c1ccc(Nc2nc(C(N)Cc3ccc(C(F)(F)F)cc3)cs2)cc1 (configuration not stated)	nt	nt	nt	7.8	i	0.1	-6	-26	5.6
Cc1ccc(S(=O)(=O)Nc2ccc3c(c2)C(=O)N([C@@H](C)CO)C[C@@H](C)[C@H](CN(C)C(=O)NC2CCCCC2)O3)cc1	nt	nt	nt	-0.9	i	nt	-2	6	-0.4
CC(C)n1c(-c2cccnc2)nc2cnccc21	0.72	14%	-4	nt	nt	-2.8	nt	nt	nt
COc1ccc(S(=O)(=O)N[C@@H]2C=C[C@H](CC(=O)NCc3ccccc3F)O[C@H]2CO)cc1	nt	nt	nt	-9.9	i	nt	-1	-5	0.3
CCCCc1nc2cc(C(=O)N3CCCC(COC)C3)ccc2o1 (configuration not stated)	0.7	nt	-19	-0.7	i	-5.1	8	7	-0.8
CC1(OC(=O)CCc2ccccc2)C(=O)C=C2C=C(c3ccc(C#N)cc3)N(CCc3c[nH]c4ccccc34)C=C2C1=O (configuration not stated)	0.72	nt	1	0.6	i	5.7	4	19	-0.2
CCCC(=O)Nc1ccc2c(c1)OC[C@H](C)N(C(=O)CN(C)C)C[C@H](C)[C@H](OC)CN(C)C2=O	nt	nt	nt	-0.4	i	nt	5	10	0.7
O=C(O)CCC(=O)Nc1sc2c(c1C(=O)NCc1ccccc1)CCCC2	0.72	-1%	19	-1.1	i	-2.7	-5	5	-2.3
Cc1nnc(Sc2c(-c3ccccc3)c3ccc(Cl)cc3[nH]c2=O)s1	0.68	-211%	4	nt	nt	2.6	nt	nt	nt
Cc1ccc(-c2csc(NC(=O)C3=COCCO3)n2)cc1	0.7	nt	15	nt	nt	-0.7	nt	nt	nt
CC(Nc1ccccc1)c1cc(Cl)ccc1O (configuration not stated)	0.79	19%	99*	nt	nt	0.5	nt	nt	nt
C[C@@H]1CN([C@@H](C)CO)S(=O)(=O)c2ccc(-c3cccnc3)cc2O[C@@H]1CN(C)C(=O)NC1CCCCC1	nt	nt	nt	3.0	i	nt	-7	-15	-1.9
COC(=O)c1ccccc1N(C)S(=O)(=O)c1cc2c(cc1C)OCC(=O)N2	0.71	-3%	3	-1.4	nt	0.9	-2	-11	-1.5
Cc1cc(C)nc(CCNC(=O)c2cc(COc3c(F)cccc3F)on2)n1	0.68	-2%	2	-1.6	i	3.5	1	-1	3.0
O=C(O)c1ccc(NC(=O)C2CCCCC2)cc1	0.69	?	-4	nt	nt	-0.5	nt	nt	nt
COc1ccc(NC(=S)NCCc2c[nH]c3ccc(OC)cc23)c(OC)c1	0.66	-1%	12	nt	nt	-1.2	nt	nt	nt
CN(Cc1ccccc1)C(=O)c1ncn(C)c1C(=O)N(C)Cc1ccccc1	0.71	nt	2	-5.7	i	-4.9	15	10	1.1
CCCNC(=O)NNC(=O)c1ccc(F)cc1	0.74	-6%	9	-7.4	i	-2.9	2	-2	-1.7
CCCCOC(=O)c1ccccc1N1C(=O)C2C3CCC(C3)C2C1=O (configuration not stated)	0.63	22%	-18	2.7	i	0.2	-8	-13	-7.0
O=S(=O)(c1ccccc1F)N1CCN(c2nc3ccccc3s2)CC1	0.71	0%	-19	-2.0	i	1.5	12	15	-0.6
CCOc1ccc(N2C(=O)C3CCCN3C2=O)cc1 (configuration not stated)	0.7	-3%	-2	nt	nt	13	nt	nt	nt
C[C@@H]1CCCCO[C@@H](CN(C)C(=O)NC2CCCCC2)[C@@H](C)CN([C@@H](C)CO)C(=O)c2cc(NC(=O)Nc3ccccc3)ccc2O1	nt	nt	nt	0.0	i	nt	0	-4	-2.0
CCC(CC)c1nnc(NC(=O)CCc2ccccc2)s1	0.69	nt	0	-2.3	i	0.7	10	11	1.1
O=C(NC1=NCCS1)c1nc(-c2ccccc2)n(-c2ccccc2)n1	0.73	24%	-1	nt	nt	2.7	nt	nt	nt
COc1ccc(N2C(=O)CC(Sc3nc(C)cc(C)c3C#N)C2=O)cc1 (configuration not stated)	0.72	30%	3	nt	nt	1.4	nt	nt	nt
Cc1ccc(NC(=O)Nc2ccc3c(c2)CCC3)cc1C	0.67	nt	-9	-0.7	i	1.8	6	7	-1.8

Single values from above.
Value for `CCC(CC)c1nnc(NC(=O)CCc2ccccc2)s1` in HNF4A DNA FP: 0.7
Value for `Cc1ccc(NC(=O)Nc2ccc3c(c2)CCC3)cc1C` in MLL AF4-AF9 inh: -0.7
Value for `CCOc1ccc(N2C(=O)C3CCCN3C2=O)cc1` (configuration not stated) in E coli growth: 0.7

Bioassay records from PubChem.
